Screening results as filed in PubChem BioAssay.
Sfp PPTase inh = Sfp phosphopantetheinyl transferase inhibition | Q9F4F7 | Biochemical Sfp PPTase activity, qHTS | Potency, µM, for the others: max response, negative = inhibition, usual class: inhibitors | 310,000 compounds, 3.5% hits | AID 1490; active = well fitted inhibition curve with a large enough effect; inconclusive = small, poorly fitted or top-dose-only effect, or another doubt; inactive = no such curve, though single readings can be large or run the other way;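 also: the enzyme is Sfp with the accession as filed and its product quenches rhodamine fluorescence; potency is read from the fitted curve at half-maximal effect; 0% = enzyme reaction without inhibitor and -100% = no enzyme wells; top concentration of the series not given in the record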
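Sfp 15 nM + cpd, 15 min RT; start w/ rhodamine-CoA 5 uM, BHQ-2-YbbR 12.5 uM (final); 50 mM Hepes pH 7.6, 10 mM MgCl2, 0.01% NP-40, 0.01% BSA; read 525/598 nm at 0 and 30 min.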
gsp antag = antagonizes gsp, the McCune-Albright syndrome mutation; gsp-mutant cells, cAMP HTRF, 30 min; control for the full effect not named in the record; Potency, µM (series often up to 76.9 µM), for inactives: at the highest dose activity change, negative = inhibition, usual class: inhibitors; 340,000 compounds, 0.4% hits; AID 624288; active = falling curve of any shape with a large fitted effect; inconclusive = falling curve, mostly with a smaller effect; inactive = flat or rising curve; cell line not stated here;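 also: intracellular cAMP measured with PDE inhibitor Ro 20-1724 present during compound exposure; potency is read from the fitted curve at half-maximal effect; % is scaled to controls: 0 for no effect and ±100 for the full control effect; nearly all actives have a fitted effect of over 65% in size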
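HTRF cAMP measurement after 30 min RT detection following 30 min, 37C compound treatment alongside […] (added as 300 uM solution) in G418-selected cells seeded at 2000/well and grown 16–24 h.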
gsp agonist = gsp mutant agonism | 340,000 compounds, 0.13% hits | gsp mutant cells, cAMP HTRF, 30 min; control for the full effect not named in the record | Potency, µM (series often up to 76.9 µM), without a hit: top-dose activation (cAMP increase), usual class: activators; active = well fitted activation curve with a large enough effect; inconclusive = small, poorly fitted or top-dose-only effect, or another doubt; inactive = no such curve, though single readings can be large or run the other way; cell line not stated here;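 also: phosphodiesterase inhibitor Ro 20-1724 added with compounds to block cAMP breakdown; potency is read from the fitted curve at half-maximal effect; nearly all actives have a fitted effect of over 60% in size; about a fifth of the inactives were tested at one dose only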
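Cells stably selected in G418 were plated at 2000/well, grown 16-24 hr, then given compounds in DMSO with the PDE inhibitor […] (300 uM solution added) for 30 min at 37C; cAMP was read by HTRF.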
ClpP mod = qHTS Assay for Activators of ClpP | Potency, µM (series often up to 57.5 µM), inactives show at the top dose activity change, negative = active | 340,000 compounds, 1.9% hits | ATP-dependent Clp protease proteolytic subunit (Bacillus subtilis (strain 168)), P80244 | purified B. subtilis ClpP, FRET peptide cleavage, 20 min; active = well fitted falling curve with a large enough effect; inconclusive = small, poorly fitted or top-dose-only effect; inactive = no such curve, though single readings can be large or run the other way; also: potency is read from the fitted curve at half-maximal effect; the source files actives as falling curves though it sought activators and does not explain the sign; nearly all actives have a fitted effect of over 65% in size; many hits overshoot -100%
Target sequence (P80244 whole entry, looked up): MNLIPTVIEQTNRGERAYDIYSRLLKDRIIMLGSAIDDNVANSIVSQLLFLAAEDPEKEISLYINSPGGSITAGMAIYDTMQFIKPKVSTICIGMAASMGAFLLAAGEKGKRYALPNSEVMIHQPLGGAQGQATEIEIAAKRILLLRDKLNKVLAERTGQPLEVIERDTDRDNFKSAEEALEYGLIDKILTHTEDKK
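FRET quenching reversal measured ClpP activation: 10 microg/mL B. subtilis ClpP at pH 8 with the FRET-FV decapeptide, read at 430 nm after 320 nm excitation. The 20-min minus 0-min signal was scaled between DMSO/no-enzyme wells and ADEP (5.8 microM final).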
Menin MLL FP FL = menin-MLL binding inhibition, fluorescein peptide; Fluorescence polarization, fluorescein-MLL peptide displacement from menin; FP activity change, % at 61.4 µM; 290,000 tested, under 10 active; AID 1766; inconclusive = falling polarisation curve, or a change in total fluorescence; inactive = total fluorescence flat and polarisation flat or rising; no compound was filed as active; the % refers to the polarisation; negative = inhibition;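 also: % of control where 0% means no effect; inhibitors lower the polarisation; unlabelled MLL peptide was the positive control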
TRPV1 PAM = potentiators of human vanilloid receptor 1 (TRPV1). Q8NER1. TRPV1-expressing cells, Fluo-8 calcium influx, capsaicin EC20 potentiation; host cell line not named in the record; control for the full effect not named in the record. potentiation, % at 8.33 µM. 320,000 compounds, 0.02% hits. AID 540277; active means potentiation above 80%; inconclusive means 30% to 80%; inactive means below 30%; also: 0% is about no effect
Target sequence (Q8NER1 whole entry, looked up): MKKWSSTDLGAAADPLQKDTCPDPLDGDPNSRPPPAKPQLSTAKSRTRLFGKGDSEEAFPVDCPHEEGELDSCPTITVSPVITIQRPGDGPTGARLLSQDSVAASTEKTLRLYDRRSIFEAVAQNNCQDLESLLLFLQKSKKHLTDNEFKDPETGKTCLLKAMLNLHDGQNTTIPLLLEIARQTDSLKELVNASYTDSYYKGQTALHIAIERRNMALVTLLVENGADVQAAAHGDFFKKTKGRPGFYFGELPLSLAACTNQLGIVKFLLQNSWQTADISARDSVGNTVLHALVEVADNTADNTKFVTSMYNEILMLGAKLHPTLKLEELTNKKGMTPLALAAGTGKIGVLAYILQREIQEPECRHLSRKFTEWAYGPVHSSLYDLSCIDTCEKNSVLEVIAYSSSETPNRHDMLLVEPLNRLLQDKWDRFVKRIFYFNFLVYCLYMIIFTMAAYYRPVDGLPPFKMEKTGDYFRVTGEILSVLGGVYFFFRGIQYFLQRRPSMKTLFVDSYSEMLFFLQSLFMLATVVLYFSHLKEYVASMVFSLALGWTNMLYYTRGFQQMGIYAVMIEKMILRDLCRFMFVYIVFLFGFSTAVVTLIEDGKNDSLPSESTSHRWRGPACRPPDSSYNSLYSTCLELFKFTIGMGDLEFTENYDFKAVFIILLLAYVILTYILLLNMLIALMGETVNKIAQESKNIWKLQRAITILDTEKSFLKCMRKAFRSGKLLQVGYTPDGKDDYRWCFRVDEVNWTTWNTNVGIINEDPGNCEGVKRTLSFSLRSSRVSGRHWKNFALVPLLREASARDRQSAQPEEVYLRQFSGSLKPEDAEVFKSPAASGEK
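Fluo-8 calcium influx in TRPV1-expressing cells, kinetic read (ex 480/em 520 nm). Compound added and read 3 min for agonist activity, followed by capsaicin at EC20 final and 2 min further read for enhancement.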
TRPML1 blocker = inhibitors of human TRPML1 channel | Q9GZU1 | TRPML1-inducible cells, Ca2+ dye fluorescence, FDSS; active compounds read low; inhibition of EC80 agonist-evoked calcium signal | activity change, negative = inhibition, % (no concentration beside the values) | 390,000 compounds, 0.02% hits | AID 624415; in the data active means activity change below about -50%; inconclusive means about -30% to -50%; inactive means above about -30%;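 also: stimulus is agonist 54-4 at its EC80 concentration; % is scaled to controls: 0 for no effect and ±100 for the full control effect; compound concentration not given in the record; the text of the record puts the active cut at -80%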
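Tet-induced TRPML1-DL cells loaded with Ca8 no-wash calcium dye were read kinetically on FDSS. Compound addition was followed by EC80 agonist 54-4 (4 uM final); inhibition was read over 110 s.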
Active calls of the source: *; & = joins results of further samples; [ ] = another dose, or the depositor's remark.

For Cc1ccc(C(=O)Nc2ccnc(-c3ccncc3)n2)cc1 the results were Sfp PPTase inh 13%, gsp antag 9%, gsp agonist 8%[15.4 µM], Menin MLL FP FL -2.7, TRPV1 PAM -2 and TRPML1 blocker 14.
CC(C)(C)OC(=O)N1CCCN(C(=O)Nc2cccc(Cl)c2)CC1 was read as Sfp PPTase inh -4%, gsp antag -1%, gsp agonist -30%[15.4 µM], ClpP mod inconclusive, Menin MLL FP FL -0.4, TRPV1 PAM -19 and TRPML1 blocker 0.
For CCc1nnc(NS(=O)(=O)c2ccc(N=CC3=C(O)CC(C)(C)CC3=O)cc2)s1 the results were Sfp PPTase inh 7%, gsp antag -3%, gsp agonist -17%, Menin MLL FP FL 0.1, TRPV1 PAM 23 and TRPML1 blocker 15.
`CC(C)(C)NC(=O)C[C@H]1C[C@H](C(=O)N2CCOCC2)[C@@]2(CCC3CCCC3)c3[nH]c4ccc(Cl)cc4c3CCN2C1=O` gave gsp antag -17%, ClpP mod -1.2% and TRPML1 blocker 7.
`C=CCn1c(SCC(=O)NC2CCS(=O)(=O)C2)nnc1-c1ccc(Cl)cc1` (configuration not stated) gave gsp antag 11%, gsp agonist -2%[15.4 µM], TRPV1 PAM -9 and TRPML1 blocker 0.
For O=C(N/N=C/c1ccoc1)c1ccccc1O the results were Sfp PPTase inh -1%, gsp antag -7%, gsp agonist -3%, ClpP mod -1.9%, TRPV1 PAM 0 and TRPML1 blocker -14.
O=C(CCCCCNC(=O)N1CCn2c1nc1ccccc12)N[C@@H](Cc1ccccc1)C(=O)O was read as Sfp PPTase inh 4%, gsp antag 5%, ClpP mod 1.9%, Menin MLL FP FL 1.2 and TRPV1 PAM 3.
O=C1NC[C@H](c2ccccc2)OC(=O)[C@H](Cc2ccc(F)cc2)CC/C=C/C[C@H]1CC(=O)N(CCO)Cc1ccccc1 was read as gsp antag inconclusive, gsp agonist -43%, ClpP mod -1.3% and TRPML1 blocker -19.
For CS(=O)(=O)N(CC(=O)N1CCOCC1)c1ccc(Cl)cc1 the results were Sfp PPTase inh 11%, gsp antag 9%, gsp agonist -1%, ClpP mod 1.0%, Menin MLL FP FL -5.1, TRPV1 PAM 5 and TRPML1 blocker 17.
For CCCN(CCC)CC(O)COc1ccc2c(c1)OCO2 (configuration not stated) the results were Sfp PPTase inh 2%, gsp antag 16%, gsp agonist -13%, ClpP mod 1.0%, Menin MLL FP FL 2.8, TRPV1 PAM 3 and TRPML1 blocker -2.
`CCC(c1nnnn1C1CCCCC1)N1CCN(C(=O)c2ccco2)CC1` (configuration not stated) gave Sfp PPTase inh 4%, gsp antag 0%, gsp agonist -49%[inhibitor], Menin MLL FP FL 5.2, TRPV1 PAM -1 and TRPML1 blocker 18.
`CC(=O)OC1CCC2(C)C3=CCC4(C)C(C(C)=O)=CCC4C3CCC2C1` (configuration not stated) gave gsp antag 6%, gsp agonist -1%[15.4 µM], ClpP mod -0.5% and TRPML1 blocker 15.
For COc1ccc(/C=C(/C#N)C(=O)Nc2cc(C)ccc2C)cc1C(=O)O the results were Sfp PPTase inh inconclusive, gsp antag -17%, gsp agonist -35%, ClpP mod 25µM*, Menin MLL FP FL 0.2, TRPV1 PAM -25 and TRPML1 blocker 5.
Screening Cc1ccc(C2(C)NC(=O)N(CC(=O)N3CCN(C(=O)c4cccs4)CC3)C2=O)cc1 (configuration not stated) returned gsp antag 0%, gsp agonist -28%, ClpP mod 0.8%, TRPV1 PAM -6 and TRPML1 blocker 3.
CC(=O)N(CC1CCCO1)C1(C(=O)NC2CCCC2)CCCCC1 (configuration not stated) was read as Sfp PPTase inh 3%, gsp antag -8%, gsp agonist -55%[inhibitor], ClpP mod 0.8%, Menin MLL FP FL -0.5, TRPV1 PAM -7 and TRPML1 blocker -10.
COc1cccc(NC(=O)CN(C)C(=O)c2ccc(N3CCCCC3)c([N+](=O)[O-])c2)c1 was read as gsp antag -6%, gsp agonist 0%, ClpP mod 0.6%, TRPV1 PAM -22 and TRPML1 blocker 9.
Screening O=C(CCc1nnc(COc2ccccc2)o1)NCc1ccccc1 returned Sfp PPTase inh 14%, gsp antag 9%, gsp agonist -2%, Menin MLL FP FL 3.0, TRPV1 PAM inconclusive and TRPML1 blocker -16.
For Cn1c(=O)[nH]c(=O)c2c1nc(N1CCCCCC1)n2CCSc1nc2ccccc2[nH]1 the results were Sfp PPTase inh -3%, gsp antag -14%, gsp agonist 32%, ClpP mod 1.3%, Menin MLL FP FL 1.7, TRPV1 PAM inconclusive and TRPML1 blocker 30.
CC(=O)N1CCCc2cc(S(=O)(=O)N3CCCC(C(=O)NCc4ccc(Cl)cc4)C3)ccc21 (configuration not stated) was read as Sfp PPTase inh 11%, gsp antag -32%, gsp agonist inconclusive, ClpP mod -0.4%&-0.5%, Menin MLL FP FL 0.1, TRPV1 PAM 1 and TRPML1 blocker 0&15.
For O=C(COC(=O)Cc1cccs1)NCC(=O)Nc1ccc(F)cc1 the results were gsp antag 11%, gsp agonist -21%, ClpP mod 0.6%, TRPV1 PAM -8 and TRPML1 blocker -1.

Ordered by length of the SMILES (falling): 3 of the compounds above
CC(=O)N(CC1CCCO1)C1(C(=O)NC2CCCC2)CCCCC1 (configuration not stated) was read as Sfp PPTase inh 3%, gsp antag -8%, gsp agonist -55%[inhibitor], ClpP mod 0.8%, Menin MLL FP FL -0.5, TRPV1 PAM -7 and TRPML1 blocker -10.
For CS(=O)(=O)N(CC(=O)N1CCOCC1)c1ccc(Cl)cc1 the results were Sfp PPTase inh 11%, gsp antag 9%, gsp agonist -1%, ClpP mod 1.0%, Menin MLL FP FL -5.1, TRPV1 PAM 5 and TRPML1 blocker 17.
Screening O=C(CCc1nnc(COc2ccccc2)o1)NCc1ccccc1 returned Sfp PPTase inh 14%, gsp antag 9%, gsp agonist -2%, Menin MLL FP FL 3.0, TRPV1 PAM inconclusive and TRPML1 blocker -16.

Continuation:
`CC(C)CC(NC(=O)/C(=C\c1ccco1)NC(=O)c1ccco1)C(=O)O` (configuration not stated) gave Sfp PPTase inh -20%, gsp antag 9%, gsp agonist 2%, ClpP mod -1.5%, Menin MLL FP FL inconclusive, TRPV1 PAM 9 and TRPML1 blocker 5.
`CCCCC(=O)N(c1ccc(C)c(C)c1)C1C=CS(=O)(=O)C1` (configuration not stated) gave Sfp PPTase inh 22%, gsp antag -22%, gsp agonist -1%, ClpP mod -1.0%, Menin MLL FP FL 1.4, TRPV1 PAM -9 and TRPML1 blocker -2.
COc1ccc(/C=N/Nc2nnc(Cc3ccc(OC)c(OC)c3)c(=O)[nH]2)cc1 was read as Sfp PPTase inh -13%, gsp antag -8%, gsp agonist -37%[inhibitor], ClpP mod 0.8%, Menin MLL FP FL 0.2, TRPV1 PAM 8 and TRPML1 blocker 15.
For CCN1C(C)=C(C)S/C1=C1\SC(=S)N(NC(C)=O)C1=O the results were Sfp PPTase inh -14%, gsp antag inconclusive, gsp agonist -51%[inhibitor], ClpP mod 4.1%, Menin MLL FP FL 3.2, TRPV1 PAM -2 and TRPML1 blocker -3.
For COc1ccc(/C=N/N=C(\N)c2nonc2N)cc1 the results were Sfp PPTase inh -2%, gsp antag 2%, gsp agonist -13%, ClpP mod 1.0%, Menin MLL FP FL -0.6, TRPV1 PAM -8 and TRPML1 blocker 22.
`CCCc1ccc(OCC(=O)NNC(=S)NC(=O)c2ccco2)cc1` gave Sfp PPTase inh 6%, gsp antag -2%, gsp agonist 6%, ClpP mod -0.6%, Menin MLL FP FL 3.0, TRPV1 PAM 18 and TRPML1 blocker 13.
`Cc1ccc(NC(=O)N(C2CCCCC2)C(C)c2cccnc2)cc1C` (configuration not stated) gave Sfp PPTase inh 5%, gsp antag 5%, gsp agonist -36%[inhibitor], ClpP mod 2.5%, Menin MLL FP FL 4.4, TRPV1 PAM -7 and TRPML1 blocker 12.
`COCc1cc(C)nc(N/N=C/c2ccc(-c3ccc(C(=O)O)c(Cl)c3)o2)c1C#N` gave Sfp PPTase inh -6%, Menin MLL FP FL 0.6 and TRPV1 PAM 2.
Screening Cc1ccc(Oc2ncccc2NC(=O)CC2(CC(=O)O)CCCC2)c2c1CCC2 returned Sfp PPTase inh 15%, gsp antag inconclusive, gsp agonist 3%[15.4 µM], Menin MLL FP FL 2.2, TRPV1 PAM 5 and TRPML1 blocker -6.
Screening O=C(Nc1nn(Cc2ccc(Cl)cc2)cc1Br)c1ccc(COc2ccccc2Cl)o1 returned Sfp PPTase inh 14%, gsp antag -1%, gsp agonist 29%, ClpP mod -2.2%, Menin MLL FP FL -0.6, TRPV1 PAM 14 and TRPML1 blocker -2.
For COc1ccc(NC(=O)C2C3C=CC(C3)C2C(=O)NCc2ccco2)c(OC)c1 (configuration not stated) the results were Sfp PPTase inh -4%, gsp antag -3%, gsp agonist inconclusive, ClpP mod 1.4%, Menin MLL FP FL 1.2, TRPV1 PAM 20 and TRPML1 blocker 12.
Screening Cc1nnc2n(Cc3ccccc3)c(=O)c3c4c(sc3n12)CN(Cc1ccccc1)CC4 returned Sfp PPTase inh 0%, Menin MLL FP FL 1.3 and TRPV1 PAM 10.
Screening O=C(NCCN1CCOCC1)c1cccn2c(=O)c3c4c(sc3nc12)CCCC4 returned Sfp PPTase inh 4%, Menin MLL FP FL -0.8 and TRPV1 PAM 6.
CC(=O)NCCC(=O)Nc1cc(S(=O)(=O)N2CCCCC2)ccc1N1CCN(C)CC1 was read as gsp antag 8%, gsp agonist 3%, ClpP mod -8.0%, TRPV1 PAM 0 and TRPML1 blocker 0.
Screening CCOc1ccccc1N1CCN(C(=O)c2ccccc2OCc2c(C)noc2C)CC1 returned gsp antag 0%, gsp agonist 23%, ClpP mod 1.3%, TRPV1 PAM -6 and TRPML1 blocker 4.
Screening COc1cccc2cc(-c3nnc(SCC(=O)Nc4ccc(NC(C)=O)cc4)n3C)oc12 returned Sfp PPTase inh -9%, gsp antag 2%, gsp agonist 26%, TRPV1 PAM -1 and TRPML1 blocker 16.
`CCOc1cc(C(=O)Nc2cccc3ncccc23)cc(OCC)c1OCC` gave Sfp PPTase inh 19%, gsp antag -1%, gsp agonist -43%, ClpP mod -1.1%, Menin MLL FP FL 1.5, TRPV1 PAM 2 and TRPML1 blocker -2.
